gsp antag: qHTS for Antagonists of gsp, the Etiologic Mutation Responsible for Fibrous Dysplasia/McCune-Albright Syndrome: qHTS | gsp-mutant cells, cAMP HTRF, 30 min; control for the full effect not named in the record | Potency, µM (doses to about 76.9 µM), for the others: top-dose activity change, negative = inhibition, most hits filed as inhibitors | 340,000 compounds, 0.4% hits | AID 624288, 2012; active = falling curve of any shape with a large fitted effect; inconclusive = falling curve, mostly with a smaller effect; inactive = flat or rising curve; cell line not stated here;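 note: intracellular cAMP measured with PDE inhibitor Ro 20-1724 present during compound exposure; potency is the fitted concentration of half-maximal effect; % is set by controls: 0 for no effect and ±100 for the full control effect; nearly all actives have a fitted effect of over 65% in size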
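HTRF cAMP read-out (cAMP-d2 plus anti-cAMP antibody-K in lysis buffer, 30 min RT). Before lysis, cells are exposed to compounds with […] for 30 min at 37C in DPBS containing Ca/Mg, BSA and Tween 20.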
ClpP mod: qHTS Assay for Activators of ClpP | purified B. subtilis ClpP, FRET peptide cleavage, 20 min | Potency, µM (highest dose often 57.5 µM), inactives show at the top dose activity change, negative = active | 340,000 compounds, 1.9% hits; active = well fitted falling curve with a large enough effect; inconclusive = small, poorly fitted or top-dose-only effect; inactive = no such curve, though single readings can be large or run the other way; note: potency is the fitted concentration of half-maximal effect; the source files actives as falling curves though it sought activators and does not explain the sign; nearly all actives have a fitted effect of over 65% in size; many hits overshoot -100%
Target sequence (P80244 whole entry, looked up): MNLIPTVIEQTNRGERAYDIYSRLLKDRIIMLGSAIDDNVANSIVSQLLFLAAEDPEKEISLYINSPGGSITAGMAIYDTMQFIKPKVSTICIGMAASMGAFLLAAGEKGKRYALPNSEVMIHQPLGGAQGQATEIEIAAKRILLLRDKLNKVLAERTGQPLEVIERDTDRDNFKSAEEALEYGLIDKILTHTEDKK
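FRET quenching reversal measured ClpP activation: 10 microg/mL B. subtilis ClpP at pH 8 with the FRET-FV decapeptide, read at 430 nm after 320 nm excitation. The 20-min minus 0-min signal was scaled between DMSO/no-enzyme wells and ADEP (5.8 microM final).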
TRPML1 ag: qHTS for Agonists of the Human Mucolipin Transient Receptor Potential 1 (TRPML1). Mucolipin-1 (Homo sapiens), Q9GZU1. TRPML1-expressing cells, Ca2+ dye fluorescence, FDSS; host cell line not named in the record; reference of the full effect not given here. activation, % (no concentration beside the values). 410,000 compounds, 0.12% hits. AID 624414, 2012; in the data active = activation above about 50%; inconclusive = about 30% to 50%; inactive = below about 30%; note: 0% is about no effect; the text of the record puts the active cut at 80%
Target sequence (Q9GZU1 whole entry, looked up): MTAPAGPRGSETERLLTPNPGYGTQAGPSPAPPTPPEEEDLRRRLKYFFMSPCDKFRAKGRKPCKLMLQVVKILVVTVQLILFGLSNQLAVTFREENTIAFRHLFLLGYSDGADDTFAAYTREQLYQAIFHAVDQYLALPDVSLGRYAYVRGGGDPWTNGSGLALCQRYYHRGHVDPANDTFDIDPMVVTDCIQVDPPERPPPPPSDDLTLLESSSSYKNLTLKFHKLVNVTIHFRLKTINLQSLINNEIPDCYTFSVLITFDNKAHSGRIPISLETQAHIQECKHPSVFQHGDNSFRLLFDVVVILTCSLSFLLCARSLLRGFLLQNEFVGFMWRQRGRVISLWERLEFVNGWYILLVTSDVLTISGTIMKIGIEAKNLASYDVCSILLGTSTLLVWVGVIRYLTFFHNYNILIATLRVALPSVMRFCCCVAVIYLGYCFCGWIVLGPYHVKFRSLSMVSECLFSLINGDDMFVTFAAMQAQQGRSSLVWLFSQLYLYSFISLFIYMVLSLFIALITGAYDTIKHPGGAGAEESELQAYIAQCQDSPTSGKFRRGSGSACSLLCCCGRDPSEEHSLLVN
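Cells: TRPML1-DL, 1X Tet inducer, ~16 h at 37 degrees C/5% CO2. Dye: ABD Ca8 no-wash + quencher, 45-90 min RT. Read: 10 s baseline, compound add, 110 s agonist phase; 54-4 EC80 (4uM final), 110 s antagonist phase.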
Menin-MLL FL inh: qHTS Assay for Inhibitors Targeting the Menin-MLL Interaction in MLL Related Leukemias: Competition With Fluorescein Labeled MLL-derived Peptide; Fluorescence polarization, fluorescein-MLL peptide displacement from menin; FP activity change, % at 61.4 µM; 290,000 tested, under 10 active; AID 1766, 2009; inconclusive = falling polarisation curve, or a change in total fluorescence; inactive = total fluorescence flat and polarisation flat or rising; no compound was filed as active; the % refers to the polarisation; negative = inhibition;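 note: % of control where 0% means no effect; inhibitors lower the polarisation; unlabelled MLL peptide was the positive control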
gsp agonist: qHTS for Agonist of gsp, the Etiologic Mutation Responsible for Fibrous Dysplasia/McCune-Albright Syndrome: qHTS; gsp mutant cells, cAMP HTRF, 30 min; control for the full effect not named in the record; Potency, µM (highest dose often 76.9 µM), for the others: top-dose activation (cAMP increase), hits mostly activators; 340,000 compounds, 0.13% hits; AID 624287, 2012; active = well fitted activation curve with a large enough effect; inconclusive = small, poorly fitted or top-dose-only effect, or another doubt; inactive = no such curve, though single readings can be large or run the other way; cell line not stated here;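 note: phosphodiesterase inhibitor Ro 20-1724 added with compounds to block cAMP breakdown; potency is the fitted concentration of half-maximal effect; nearly all actives have a fitted effect of over 60% in size; about a fifth of the inactives were tested at one dose only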
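Cells stably selected in G418 were plated at 2000/well, grown 16-24 hr, then given compounds in DMSO with the PDE inhibitor […] (300 uM solution added) for 30 min at 37C; cAMP was read by HTRF.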
TRPML1 inh: qHTS for Inhibitors of the Human Mucolipin Transient Receptor Potential 1 (TRPML1) | Mucolipin-1 (Homo sapiens), Q9GZU1 | TRPML1-inducible cells, Ca2+ dye fluorescence, FDSS; hits give low values; inhibition of EC80 agonist-evoked calcium signal | activity change, negative = inhibition, % (concentration not given with the values) | 390,000 compounds, 0.02% hits; in the data active means activity change below about -50%; inconclusive means about -30% to -50%; inactive means above about -30%;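 note: stimulus is agonist 54-4 at its EC80 concentration; % is set by controls: 0 for no effect and ±100 for the full control effect; the text of the record puts the active cut at -80%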
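TRPML1-DL cells, Tet-induced overnight (~16 h, 37 °C) at 1,500 cells/well, were loaded with Ca8 no-wash dye plus quencher for 45-90 min at room temperature. Compounds were pinned during FDSS kinetic reading; agonist 54-4 at EC80 (4 uM final) then added.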
* = called active by the depositor; ? = inconclusive; nt = no result given; & = joins results of further samples; [ ] = remark or other dose.

SMILES	gsp antag	ClpP mod	TRPML1 ag	Menin-MLL FL inh	gsp agonist	TRPML1 inh
CCOc1cc2[nH]c(=O)n(Cc3ccc(C(=O)NCCCN4CCCC4=O)cc3)c(=O)c2cc1OCC	-9%	1.1%	1.0	3.0	5%[15.4 µM]	-4
COc1ccccc1C(=O)NCC(c1cccnc1)N(C)C (configuration not stated)	-4%	-0.3%	0.6	3.1	-5%	27
NS(=O)(=O)c1ccc(NC(=S)NC(=O)c2ccc3c(c2)OCO3)cc1	-3%	nt	-1.0	-0.3	-4%[15.4 µM]	-3
COc1ccc(-c2c(C)nn(Cc3ccccc3)c2N)cc1	3%	-2.5%	0.4	-1.2	-13%	44
Cc1cccc(NC(=O)N2CCC(n3nnc4cc(C)ccc43)CC2)c1	-3%	0.1%	1.3	-0.3	-37%[inhibitor]	-3
CN(C)c1nc(C#N)nc(N2CCOCC2)n1	2%	-1.9%&-3.3%	-0.9&-0.3	1.2	-2%	-18
Cc1nc2ccccc2c(=O)n1NCc1cc(Br)cs1	-18%	-9.4%	1.4	2.1	-13%	-3
O=C(Nc1ccccc1C(=O)OCc1cc(=O)n2nc(C3CC3)sc2n1)c1cccc(Cl)c1	nt	3.9%	-0.8	nt	nt	-10
CC(C)C(=O)N1CCN(c2ccc(NC(=O)c3ccc4c(c3)OCCO4)cc2Cl)CC1	?	0.3%	1.5	2.9	-1%	7
COc1ccc(S(=O)(=O)N(Cc2nc3ccccc3c(=O)[nH]2)C2CCCC2)cc1	?	-2.2%	-0.8	0.0	-22%	29
Cn1c(=O)c2nc(SCC(=O)Nc3cc(Cl)cc(Cl)c3)n(C)c2n(C)c1=O	nt	-2.8%	2.2	nt	nt	4
O=C(c1cccs1)N1CCN(S(=O)(=O)c2ccccc2)CC1	-2%	-7.5%	-0.2	5.2	-30%	-4
O=S(=O)(N/N=C/c1cccnc1)c1ccc(Cl)c(Cl)c1	3%	nt	0.7	-1.4	-4%	23
COCCn1c(SCC(=O)c2c(N)n(C3CC3)c(=O)[nH]c2=O)nnc1-c1ccc(Cl)cc1	1%	0.1%	1.4	nt	0%	5
COc1ccc(-c2c(C)oc3c(CN4CCN(C)CC4)c(O)ccc3c2=O)cc1	6%	5.2%	-0.7	1.4	-22%	-3
COc1ccc(C)cc1S(=O)(=O)n1nc(C)cc1C	nt	nt	0.5	6.6	3%[15.4 µM]	8
Cn1nc(C(F)(F)F)c2cc(C(=O)Nc3ccc(F)cc3F)sc21	-2%	-0.7%	1.8	-0.1	0%	21
CN1C(N)=NC(=O)/C1=C\c1ccc(Br)cc1	1%	-0.5%	0.5	-1.9	-5%	1
COc1ccc(OC2OC3COC(c4ccco4)OC3C(O)C2NC(C)=O)cc1 (configuration not stated)	10%	-3.9%	0.1	0.2	?	-9
Nc1cccc(C#Cc2ccc3c(c2)C(=O)/C(=C/c2ccsc2)O3)c1	-9%	-2.9%	-0.5	nt	nt	10
O=C(NC(=S)N1CCCC(O)C1)c1ccco1 (configuration not stated)	10%	2.8%	-0.3	nt	1%	4
Cc1ccc(S(=O)(=O)CCC(=O)OCC(=O)NCCc2ccccc2)cc1	-9%	nt	0.5	nt	0%[15.4 µM]	-4
C=CCC[C@@H](Cc1ccc(F)cc1)C(=O)OC[C@H](Cc1c[nH]c2ccccc12)NC(=O)[C@H](CC=C)CC(=O)NCCO	-27%	-0.7%	1.1	nt	-26%	?
COCCCNC(=O)c1cccs1	-3%	-0.2%	2.6	4.4	?	-4
O=C(Nc1cccnc1)c1ccccc1Cl	-10%	1.0%	0.3	0.0	12%[15.4 µM]	0

Random excerpt: two compounds from above, in no set order.
SMILES	gsp antag	ClpP mod	TRPML1 ag	Menin-MLL FL inh	gsp agonist	TRPML1 inh
Cc1ccc(S(=O)(=O)CCC(=O)OCC(=O)NCCc2ccccc2)cc1	-9%	nt	0.5	nt	0%[15.4 µM]	-4
COCCn1c(SCC(=O)c2c(N)n(C3CC3)c(=O)[nH]c2=O)nnc1-c1ccc(Cl)cc1	1%	0.1%	1.4	nt	0%	5

Next records
SMILES	gsp antag	ClpP mod	TRPML1 ag	Menin-MLL FL inh	gsp agonist	TRPML1 inh
O=C(NCc1ccco1)Nc1cccc2ccccc12	-7%	nt	-1.2	nt	-17%	-7
COc1ccc(NC(=O)NN2CCOCC2)cc1OC	nt	nt	1.3	-3.9	10%[15.4 µM]	-14
COc1ccc(N2CCN(CC(O)COc3ccccc3C(C)(C)C)CC2)cc1 (configuration not stated)	nt	-6.6%	-1.0	nt	nt	3
COc1ccccc1N1CCN(C(=O)c2ccc(Br)s2)CC1	-14%	0.4%	-0.1	0.7	?	11
O=C(CSc1ncn[nH]1)NCc1ccccc1Cl	11%	nt	-0.1	-2.5	-11%[15.4 µM]	15
COc1ccccc1N(CC(=O)Nc1ccccc1C(=O)N1CCOCC1)S(C)(=O)=O	10%	nt	-0.3	-1.7	6%[15.4 µM]	21
COc1ccc(-c2ccc([C@H]3[C@H]4C=CC[C@@H](C)[C@@H]4C(=O)N3Cc3ccccc3)c(F)c2)cc1C	7%	25µM*	0.0	-2.7	nt	74
Cc1ccc(C(=O)COC(=O)CCC(=O)Nc2cc(Cl)ccc2Cl)cc1[N+](=O)[O-]	0%	-9.3%	0.4	-0.8	-26%	2
CCN1C(=S)SC(=O)C1=C1C=C(C)OC(C)=C1	4%	?	0.8	?	6%	-20
O=C(COC(=O)c1ccc(S(=O)(=O)N2CCCC2)cc1)Nc1ccccc1Cl	nt	1.8%	-0.4	nt	-124%[inhibitor]	1
COc1ccc(C/C(N)=N/OC(=O)COc2ccccc2C)cc1	6%	-2.4%	-0.1	5.8	-27%	-12
CCOc1ccc(/C=N/n2nnnc2N)cc1O	5%	nt	0.7	0.9	-4%[15.4 µM]	-3
COc1cccc(NC(=O)Nc2ccc3c(c2)nc(C)n3C)c1	-2%	nt	1.5	1.6	0%[15.4 µM]	8
O=C1CCCCCN1CSc1nc2ccccc2s1	-9%	-1.1%	-1.7	0.0	22%	33
O=P(OC1CCCCC1)(OC1CCCCC1)C(O)c1ccc(Cl)cc1Cl (configuration not stated)	5%	-1.4%	-1.0	1.4	-26%	-2
O=C(Oc1ccccc1)c1ccccc1OS(=O)(=O)c1ccccc1	?	-1.6%	3.1	3.6	-2%	72
Cc1oc2c(CN3CCCC3)c(O)ccc2c(=O)c1-c1ccccc1	-7%	52%	0.4	0.8	25%	38
Cc1ccc2c(c1)N(CC(=O)NC1CCCCCC1)C(=O)c1cccnc1O2	-3%	0.7%	-0.4	0.0	4%	23
CC1(C)Cc2c(ccc3ccccc23)/C(=C/C#N)N1	?	2.3%	1.5	4.9	1%	14
COc1ccc(-c2cn3nc(N4CCCC(C(=O)Nc5ccc(Cl)cc5C)C4)sc3n2)cc1 (configuration not stated)	nt	1.5%	0.5	nt	nt	-23
CC(C)(CN=C1NS(=O)(=O)c2ccccc21)CNC(=O)CN1C(=O)c2ccccc2C1=O	10%	-0.6%	1.1	3.3	-63%[inhibitor]	7
COC(=O)/C=C/c1ccsc1NC(C)=O	-1%	nt	-0.2	-1.2	7%	40
CC1(C)C(=O)OC(/C=C\c2ccccc2)C(C)(C)C1=O (configuration not stated)	0%	nt	0.5	-0.7	-1%[15.4 µM]	11
CC(C)OC(=O)C1=C2SCC(=O)N2C(N)=C(C#N)C1	1%	-7.9%	0.4	19	0%	-5
COc1cccc(CNC(=O)CSc2nc3ccccc3nc2Cc2ccccc2)c1	nt	-1.3%	6.1	nt	nt	50

Remaining list, next part
SMILES	gsp antag	ClpP mod	TRPML1 ag	Menin-MLL FL inh	gsp agonist	TRPML1 inh
CC1(C)Cc2cccc(OCC(=O)OCc3nnc(-c4ccccc4)o3)c2O1	1%	-2.6%	0.4	nt	-40%[inhibitor]	-13
CCCc1cc(-c2ccc(O)c(OCC)c2)c(C#N)c(N)n1	19%	-7.6%	2.4	1.7	-1%	3
O=C(CSc1nc2ccccc2[nH]1)NCCc1ccc(Cl)cc1	-16%	2.1%	1.0	2.1	-2%	11
CCCC(=O)Nc1cccc(-c2nc3cc(C)c(C)cc3o2)c1C	nt	?	-0.1	nt	nt	-10
Cc1ccc2c(c1)C(c1ccc(F)cc1)N(C(=O)COc1ccc(Cl)cc1Cl)CC(=O)N2 (configuration not stated)	nt	0.7%	-0.7	nt	nt	24
O=C(CN1C(=O)c2ccccc2S1(=O)=O)Nc1ccccc1C(=O)NCc1ccco1	1%	-1.0%	1.3	-0.5	24%	25
Cn1nc(C(=O)NCc2ccc(Cl)cc2)c2c1-c1ccccc1S(=O)(=O)C2	-1%	-5.5%&-7.5%	-1.4&0.3	nt	3%	7&-14
COc1ccc(CN2CCC(C(=O)c3ccc(F)cc3)CC2)cc1	4%	-0.6%	nt	6.0	17%	nt
COc1ccc(-c2noc(-c3ccc(NCc4ccco4)c([N+](=O)[O-])c3)n2)cc1	nt	0.2%	-0.6	nt	nt	-21
CC(O)(CC(=O)CC(=O)c1ccccc1)c1ccccc1 (configuration not stated)	2%	-1.9%	1.3	nt	11%	-9
Cc1cccc(C)c1OCc1cc(C(=O)N2CCN3CCCC3C2)no1 (configuration not stated)	7%	-1.2%	0.3	nt	-1%	16
Cc1cc(NC(=O)NC2(C(F)(F)F)Oc3ccc(Cl)cc3O2)no1 (configuration not stated)	-5%	2.1%	-0.3	0.8	-28%	9
CCOc1ccc(NC(=O)Nc2cc(OCC(F)(F)F)cc(OCC(F)(F)F)c2)cc1	-17%	nt	-0.3	-0.1	-11%	-8
COc1ccc(N2CCN(C(=O)C3CCCN(c4ncnc5c4nc4n5CCCCC4)C3)CC2)cc1 (configuration not stated)	-19%	-6.0%	-0.4	-4.9	?	26
COc1ccc(NC(=O)CC2C(=O)N(c3cccc(C)c3)C(=O)N2C2CCCCC2)cc1 (configuration not stated)	-9%	1.0%&1.0%	0.1&0.0	-2.4	4%	-7&-7
CC(C)C1N=C2c3ccccc3N=C(SCc3cc(=O)n4cc(Cl)ccc4n3)N2C1=O (configuration not stated)	22%	-0.8%	1.3	3.4	17%	4
COc1cc(CCC(=O)N2CCN(c3ccccc3)CC2)cc(OC)c1OC	-10%	2.6%	-1.6	4.3	0%[15.4 µM]	-6
COc1cccc(CN2CC(C(=O)N3CCCC3)CCC2=O)c1 (configuration not stated)	9%	2.3%	0.7	nt	?	8
COc1cccc(NC(=O)CN(C)C(=O)CSC(=S)N2CCCC2)c1	5%	-11%	1.2	nt	15%	-5
CC(=O)Cc1nsc(NC(=O)c2cc(-c3ccccc3Cl)oc2C)n1	-17%	-29%	-0.4	12	?	24

Source: PubChem
